Autofluor counter – flagged as autofluorescent in microsphere protease counterscreen; compound autofluorescence counterscreen, microsphere flow cytometry; stronger effect = higher value; fluorescence intensity (no concentration beside the values); 360,000 tested, 3.1% active; AID 624483;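 active = at least 3 SD above the mean of all compounds, about 16000 in these data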;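 also: 100 nL of 1 mM stock went into each well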
PrP UTR inh – suppresses PrP 5' UTR mRNA reporter expression; cell-based PrP 5' UTR mRNA reporter, plate reader; inhibition, % (no concentration beside the values); 340,000 tested, 0.35% active; AID 488862;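 active = every replicate at 50% or more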;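 also: 0 = median of the neutral control wells; tested in H4 reporter cells; numbers are from one replicate; inactives centre near -14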
Starred values were filed as active, the others as inactive. The list is partial, so the mix of outcomes need not match the whole.

SMILES	Autofluor counter	PrP UTR inh
CC(C)c1ccc(/C=c2\sc3n(c2=O)C(N)=C(C#N)C(c2ccc(C(C)C)cc2)C=3C(N)=O)cc1 (stereo unspecified)	3412	4.0
Cc1noc(C)c1NC(=O)N(C)C[C@H]1Oc2ccc(NS(=O)(=O)c3cn(C)cn3)cc2C(=O)N([C@H](C)CO)C[C@@H]1C	3508	-20.4
COC(=O)[C@@H]1C[C@@H](c2ccccc2)[C@H](C)C1(C)C	3931	-17.3
Cc1cc(C(=O)O)ccc1-c1ccc(/C=C2\SC(=O)N(CC(=O)Nc3ccc4c(c3)OCO4)C2=O)o1	5727	-5.9
C(=C\c1sc(Nc2ccccc2)n[n+]1-c1ccccc1)/c1ccccc1	3843	-9.1
C[C@H]1NC(=O)[C@]2(C)[C@@H](c3ccccc3)[C@H]3COc4ccccc4[C@H]3N2C1=O	2954	-4.1
Cn1cc(Cc2ccccc2)c(=O)c(Cc2ccccc2)c1	4166	-15.5
Cc1cn(C2CC(O)C(CO)O2)c(=O)n(Cc2ccccc2)c1=O (stereo unspecified)	3611	-22.1
Cc1ccc(C(=O)COC(=O)c2cnccn2)cc1[N+](=O)[O-]	3320	8.6
Cc1nc(C)c(C(=O)NN=Cc2ccc(N(CCCl)CCCl)cc2)s1	3544	-82.3
COC(=O)C1=C(c2c(C)noc2C)C[C@@H]2CC[C@H]1N2C(=O)N1CCC(C)CC1	3344	-12.3
CN1CCN(CC(=O)N2CCn3c4c(c5cc(C6CCCCC6)ccc53)CCCC42)CC1 (stereo unspecified)	13920	-41.1
CCOC(=O)[C@H]1[C@H]2COc3ccc(C)cc3[C@@H]2N2C(=O)c3cc(Br)ccc3NC(=O)[C@@]12C	3608	-13.1
CCc1c(C)nc2[nH]ncn2c1=O	2884	-25.8
NC(=O)c1ncn([C@@H]2O[C@H](CNCc3cc(Cl)ccc3OCc3ccc(Cl)cc3)[C@@H](O)[C@H]2O)n1	2955	-23.7

Among those listed so far, 2 have a Cl atom:
SMILES	Autofluor counter	PrP UTR inh
Cc1nc(C)c(C(=O)NN=Cc2ccc(N(CCCl)CCCl)cc2)s1	3544	-82.3
NC(=O)c1ncn([C@@H]2O[C@H](CNCc3cc(Cl)ccc3OCc3ccc(Cl)cc3)[C@@H](O)[C@H]2O)n1	2955	-23.7

Remaining list, next part
SMILES	Autofluor counter	PrP UTR inh
C=CC(=O)OCCOCCOCCOCCOC(=O)C=C	5203	-13.9
CCOc1cc(/C=N/Nc2ccccc2Cl)ccc1OCC(=O)O	2044	-29.2
O=C(NC(Cc1ccc(O)cc1)C(=O)N=Nc1c(O)[nH]c2ccccc12)c1ccccc1 (stereo unspecified)	4345	-13.3
CCCn1nc(C(=O)NNC(=O)c2ccc(C)c(C)c2)c2ccccc2c1=O	3429	-29.7
COc1ccccc1NS(=O)(=O)c1ccc(C)c(C(=O)N2CCN(c3ccc(O)cc3)CC2)c1	4026	-18.4
C[C@@]12C(=O)N(CCc3c[nH]c4ccccc34)CC(=O)N1[C@H]1c3ccccc3OC[C@@H]1[C@@H]2c1ccccc1	4250	-20.9
N#CC1(Nc2ccc(S(N)(=O)=O)cc2)CCCC1	8011	73.8*
O=C(NCC1CCCCC1)NCC1CCCCC1	5864	-48.2
COP(=O)(NC(C)=O)SC (stereo unspecified)	5486	-8.8
OCC1=C[C@@H](O)C2C=CO[C@@H](O[C@@H]3O[C@H](CO)[C@@H](O)[C@H](O)[C@H]3O)C12 (stereo partly specified)	3744	-19.9
COC(=O)C1=C(c2ccc(F)cc2OCc2ccccc2)C[C@@H]2CC[C@H]1N2C(=O)NCc1ccc(F)cc1	4231	-13.1
Fc1ccc2cnc(CCO[C@H]3CCCCO3)cc2c1	2935	28.1
CC[C@H](C)[C@H]1CNC(=S)N1CC1CCN(CC2CCC(C)CC2)CC1 (stereo partly specified)	3754	-11.2
C/C(=N\Nc1cccc(Cl)c1)c1ccc(-n2ccnc2)cc1	2245	-23.0
COc1ccc(C(C)(C)C)cc1NC(=O)CCc1c(C)noc1C	3496	-7.5

Three compounds already listed, sorted by molecular weight, descending:
SMILES	Autofluor counter	PrP UTR inh
COc1ccccc1NS(=O)(=O)c1ccc(C)c(C(=O)N2CCN(c3ccc(O)cc3)CC2)c1	4026	-18.4
COc1ccc(C(C)(C)C)cc1NC(=O)CCc1c(C)noc1C	3496	-7.5
O=C(NCC1CCCCC1)NCC1CCCCC1	5864	-48.2

The list continues.
SMILES	Autofluor counter	PrP UTR inh
O=[N+]([O-])c1ccc(COc2ccccc2CN2CCCCC2)cc1	3132	-9.9
O=S(=O)(NC1C2CC3CC(C2)CC1C3)c1ccccc1 (stereo unspecified)	3670	-2.5
COC(/C(C)=C/C=C/C(C)=C/c1coc(C)n1)C(C)C1CC(O)C2(C)OC2C=CC(C)C2CC(CC(=O)O2)CC2OC2C(=O)O1 (stereo unspecified)	2940	49.3
COc1cc(/C=c2\sc3nc(=O)c(-c4ccccc4)nn3c2=O)ccc1OCCC(C)C	8979	-29.9
O=C1C=CC(=O)N1	6044	44.7
CC(=O)NC1C(=O)N(CCc2ccccc2)c2ccc(Br)cc21 (stereo unspecified)	8355	1.7
O=C1C(=NO)CCCc2ccccc21	4290	-19.0
CC(OC(=O)c1c[nH]c2ccccc12)C(=O)N1CCCC1 (stereo unspecified)	3866	-6.9
N#Cc1c(N2CCN(c3ccc([N+](=O)[O-])cc3)CC2)[n+](=O)c2ccc(Cl)cc2n1[O-]	4187	35.0
CC(C)(C)OC(=O)C[C@@H]1C/C=C\C[C@H](CC(=O)NCCO)C(=O)N[C@@H](c2ccccc2)COC1=O	4430	-25.9
CCOC(=O)C1=CC[C@@H](c2cc3ccc(OC)cc3n2C)N(S(=O)(=O)c2ccc(C)cc2)[C@H]1C(=O)OCC	3965	-13.2
Cc1ccc(NC(=O)Cn2c(=O)ccn(Cc3ccccc3)c2=O)cc1S(=O)(=O)N1CCOCC1	3682	-0.5
CN1[C@@H](CC(=O)c2ccccc2)CCC[C@H]1C[C@H](O)c1ccccc1	5863	-1.2
Cc1noc(C)c1NC(=O)N(C)C[C@H]1Oc2ccc(NC(=O)CCC(F)(F)F)cc2C(=O)N([C@H](C)CO)C[C@@H]1C	3902	-12.3
COC(=O)C1=C(c2cccc(OCc3ccccc3)c2)C[C@@H]2CC[C@H]1N2C(=O)NCc1cccc(OC)c1	3427	-12.3

New compounds follow:
Under each structure: Autofluor counter	PrP UTR inh
CCCOc1cccc(C(=O)N/N=C/c2coc3ccccc3c2=O)c1
→ 5883	-6.3
CC(O)C(C(=O)OCc1ccc([N+](=O)[O-])cc1)N1C(=O)c2ccccc2C1=O (stereo unspecified)
→ 2369	-3.0
CC(=O)c1c(C)[nH]c(C(=O)OCc2cc(-c3ccco3)on2)c1C
→ 3000	-13.2
Nc1n[nH]c(=S)n1/N=C1/C(=O)Nc2ccccc21
→ 4579	-30.0
COc1ccc(C2NCCCC2c2ccccc2)cc1 (stereo unspecified)
→ 3308	-8.7
CN1OC[C@@H]2CN(C(=O)C(C)(C)C)[C@H](c3cccc(Br)c3)C[C@@H]21
→ 3777	-18.7
CCOC(=O)c1ccc(/C=C2\c3ccccc3C(=O)N2c2ccccc2)cc1F
→ 2850	-3.8
COC(=O)C1=C(c2cccc(C#N)c2)C[C@@H]2CC[C@H]1N2C(=O)NCCO
→ 3917	-5.2
O=C1C=CC(=O)c2c(O)c(N3CCN(CCO)CC3)c(Cl)c(O)c21
→ 2679	-28.1
COC(=O)c1ccc(NCc2cc(O)ccc2O)cc1
→ 4210	-7.3
CCOc1ccc(NC(=O)CN(C)C(=O)Cc2ccsc2)cc1OCC
→ 3005	4.3
O=C(CN(C1CCCCC1)S(=O)(=O)c1ccc(F)cc1)NCC1CCCO1 (stereo unspecified)
→ 3760	-38.7
CC(=O)Nc1ccc(NC(=O)CSc2nc(=O)n(Cc3cccnc3)c3c2CCC3)cc1
→ 6125	-1.7
Cc1ccc(S(=O)(=O)N2CCN(C(=O)CCc3c[nH]c4ccccc34)CC2)cc1
→ 3575	-4.1
C[C@H](CO)N1C[C@H](C)[C@@H](CN(C)Cc2ccncc2)Oc2c(NS(=O)(=O)c3cccs3)cccc2C1=O
→ 3505	-26.7
COc1ccc2c(c1)[C@H]1[C@H](CO2)[C@H](c2ccccc2)[C@]2(C)C(=O)N(Cc3ccc(C)cc3)CC(=O)N12
→ 2982	-9.5
C=CC[C@@H](CC(=O)N(CCO)Cc1ccccc1)C(=O)N[C@@H](COC(=O)[C@@H](CC=C)Cc1ccc(F)cc1)Cc1ccccc1
→ 3638	-2.7
O=[N+]([O-])c1ccc(CS(=O)Cc2ccccc2)cc1 (stereo unspecified)
→ 3302	-3.8
COC(=O)C1=C(c2ccc(OCc3ccccc3)cc2)C[C@@H]2CC[C@H]1N2C(=O)NCc1cccc(OC)c1
→ 3908	-8.4
C[C@@H]1NS(=O)(=O)[C@H]2C[C@@H]3C=C[C@]2(O3)[C@H]1OC(=O)c1ccc(C(C)(C)C)cc1
→ 3074	-8.2
C1=C(c2sc3ccccc3c2-c2ccc(OCCN3CCOCC3)cc2)CCCC1
→ 3907	-29.6
CCOC(=O)c1cc(-c2ccccc2)nc2c(O)cccc12
→ 2858	-6.4
COc1ccc(C2=CC(c3ccc4c(c3)OCO4)c3c(c4ccccc4oc3=O)O2)cc1OC (stereo unspecified)
→ 3686	-10.0
O=[N+]([O-])c1cccc2[nH]ncc12
→ 4486	-5.9
CC(C)(C)OC(=O)N1CCCC(C(=O)Nc2cccc(C(=O)N3CCOCC3)c2)C1 (stereo unspecified)
→ 2920	-4.7
O=C(C1CC(=O)N(c2ccc3c(c2)OCCO3)C1)N1CCN(S(=O)(=O)c2cccc(F)c2)CC1 (stereo unspecified)
→ 4946	-20.4
O=C(O)C1(O)C[C@H](O)C(O)[C@@H](O)C1 (stereo partly specified)
→ 6130	-33.8
CN(Cc1ccccc1)C(=O)c1cccc(NC(=O)Cc2cccc(NC(=O)C3CCN(C(=O)c4ccccc4)CC3)c2)c1
→ 4092	-20.3
COc1ccccc1-c1cccc([C@@H]2C[C@H]3[C@H](CON3C)CN2S(=O)(=O)c2ccccc2C)c1
→ 3625	-5.3
CCOC(=O)C1=C(COC(=O)c2ccc(Cl)c(S(=O)(=O)N3CCOCC3)c2)NC(=O)NC1C (stereo unspecified)
→ 4105	-3.5
O=C1C=C(c2ccc(-c3ccccc3)c(F)c2)C[C@@H](c2ccc3c(c2)OCO3)C1
→ 3787	-18.2
CC(=O)OC(C=C(C)C)C/C(C)=C/COc1c2ccoc2cc2oc(=O)ccc12 (stereo unspecified)
→ 2878	16.2
C[C@@]12C(=O)Nc3ccc(Br)cc3C(=O)N1[C@H]1c3cc(Br)ccc3OC[C@@H]1[C@@H]2c1ccccc1
→ 3797	-10.2
COc1ccccc1CNCCS(=O)(=O)NCc1ccccc1
→ 3541	-6.9
Cn1cc(C(=O)C(=O)N2CCCCC2)c2ccccc21
→ 3446	-14.1
O=C1c2cc(Br)ccc2N(Cc2ccc(Br)cc2)S(=O)(=O)C1c1cc(Cl)c(Cl)cc1[N+](=O)[O-] (stereo unspecified)
→ 3626	-6.4
C=CC[C@H](CC(=O)OC(C)(C)C)C(=O)OC[C@@H]1CCCN1C(=O)[C@@H](CC=C)CC(=O)NCCO
→ 3574	-8.8
CCCSc1nc2c([nH]1)c(=O)n(C)c(=S)n2C
→ 4143	-12.6
C[C@@H]1CN([C@@H](C)CO)C(=O)c2cccc(NS(=O)(=O)c3ccc(F)cc3)c2O[C@H]1CN(C)C(=O)NC1CCCCC1
→ 3872	-9.4
C=CC(=O)OCCO
→ 3682	-15.7
C[C@H]1NC(=O)[C@@]2(C)[C@H](c3ccccc3)[C@H]3COc4ccccc4[C@@H]3N2C1=O
→ 3486	-13.5
C/C(=N\NC(=O)C1CCCC1)c1ccc(Cl)cc1Cl
→ 5793	-25.3
CC(=O)OC(C)(C)/C=C/C(=O)[C@](C)(O)C1[C@H](O)C[C@@]2(C)C3CC=C4C(C[C@H](O)C(=O)C4(C)C)[C@]3(C)C(=O)C[C@]12C (stereo partly specified)
→ 3017	83.6*
Cc1ccc(C)c(C(=O)OCC(=O)Nc2cccc(S(=O)(=O)N3CCCCC3)c2)c1
→ 3543	-11.0
COc1ccc(C2OC[C@H]3O[C@H](O)[C@H](NC(C)=O)[C@@H](O)[C@@H]3O2)cc1 (stereo partly specified)
→ 3340	-13.7
CCCCN1CC(=O)N2[C@@H]3c4cc(Br)ccc4OC[C@@H]3[C@H](C(=O)OCC)[C@]2(C)C1=O
→ 2947	-13.0
C=C1C[C@H](O[C@@H]2O[C@H](CO)[C@@H](O)[C@H](O)[C@H]2O)[C@@H]2[C@H](OC(=O)[C@H]2C)[C@H]2[C@H](C)[C@H](O)C[C@@H]12
→ 3804	-9.8
CCON1C(=O)C2(CCCCC2)C(=O)C12C=CCCC2 (stereo unspecified)
→ 3335	0.2
CCOc1ccc(Br)cc1C1=CC(=O)C[C@H](c2ccc(OC)cc2)C1
→ 2843	-15.7
c1ccc(-c2nn(-c3ccccc3)[n+](-c3ccccc3)n2)cc1
→ 4052	-33.6
O=c1c(O[C@H]2O[C@@H](CO)[C@H](O)[C@@H](O)[C@@H]2O)c(-c2ccc(O)cc2)oc2cc(O)cc(O)c12
→ 3238	-15.9
C[C@@H]1NC(=O)[C@@]2(C)[C@@H](c3ccccc3)[C@H]3COc4ccc(Cl)cc4[C@@H]3N2C1=O
→ 4114	-14.0
C=C[C@@H]1c2ccccc2N(S(=O)(=O)c2ccc(C)cc2)[C@H](c2ccc(C(=O)OC)cc2)C1(C#N)C#N
→ 3639	-20.1
O=C1C=C(/C=C/c2ccccc2)C[C@@H](c2ccc3c(c2)OCO3)C1
→ 2667	-13.5
COc1cc(-c2cc(O)c(-c3ccc4ccccc4n3)c(=O)[nH]2)cc(OC)c1OC
→ 8717	-24.1
O=[N+]([O-])c1ccc(CSc2ncnc3c2ncn3[C@@H]2O[C@H](CO)[C@@H](O)[C@H]2O)cc1
→ 5123	-16.6

High-throughput results deposited in PubChem BioAssay by several laboratories.
